Screens: PubChem, several laboratories
E coli growth = inhibitors of Escherichia coli growth; OD600 absorbance (concentration not given with the values); hit rate 0.21% among 330,000; OD600, 23 h; stronger effect = lower value;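 active means OD600 absorbance below the run mean of sample wells minus 3.6 SD, in any replicate, cut at about 0.56 in these data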;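 further: stock transfer was 300 nL into about 60 µL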
Beta apoptosis = blocks beta cell apoptosis; protection from apoptosis, % (concentration not given with the values); AID 435005; INS-1E cytokine-induced death, ATP luminescence, 48 h; percent of positive-control rescue, neutral wells zero; hit rate 0.8% among 300,000;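 active means all replicates at 75% or more, or half of them and the mean; inconclusive means half reach 75% but not the mean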;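 further: 0% = cytokine-treated negative control wells and 100% = positive control rescue; higher means more ATP so stronger rescue from cytokine killing; wells of about 40 µL received 100 nL stock; the first replicate is given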
Bfl-1 A1 inh = inhibitors of the anti-apoptotic protein A1, read as caspase activation | hit rate 0.066% among 330,000 | caspase activation, % (concentration not given with the values) | MEF A1-2A-BIM cells, Caspase-Glo 3/7 luminescence, 3 h; percent of clofoctol response, vehicle zero | AID 2462;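 active means over half of replicate activation scores above 10%, or exactly half above 10 with the replicate mean above 10; inconclusive means replicate mean below 10 yet half the replicates above 10; inactive means over half of replicates below 10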;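 further: wells of about 30 µL received 50 nL stock; many hits fall short of the cut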
UCH37 inh = human UCH37 deubiquitinating enzyme inhibition; purified proteasome/UCH37, Ub-AMC cleavage fluorescence; inhibition, % (no concentration beside the values); hit rate 0.33% among 330,000; AID 588478;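 active means mean of two replicates above 20%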;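 further: 0% = compound-free wells with enzyme and 100% = wells lacking proteasome; stock transfer was 100 nL into about 20 µL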
Target sequence (Q9Y5K5 whole entry, looked up): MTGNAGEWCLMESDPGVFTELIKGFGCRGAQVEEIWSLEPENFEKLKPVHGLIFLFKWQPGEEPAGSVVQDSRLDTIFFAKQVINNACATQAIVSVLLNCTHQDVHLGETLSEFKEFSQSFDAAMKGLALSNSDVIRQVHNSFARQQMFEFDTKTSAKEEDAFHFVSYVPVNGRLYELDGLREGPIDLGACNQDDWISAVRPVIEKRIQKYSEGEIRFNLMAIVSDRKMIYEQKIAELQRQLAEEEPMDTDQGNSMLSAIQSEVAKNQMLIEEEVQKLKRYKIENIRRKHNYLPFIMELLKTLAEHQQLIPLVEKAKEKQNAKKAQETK
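assay system = human UCH37 enzyme supplied as purified proteasome complex | amount = proteasome at 0.15 nM in the dispensed enzyme solution | schedule = 30 min compound-proteasome preincubation then 25 min substrate reaction, room temperature | measured by = fluorescence, ex 355 nm, em 460 nm | benchmarks = no-proteasome wells (full inhibition) and compound-free wells (no inhibition)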
FGF22 binding = shifts melting point of recombinant human FGF22 | Q9HCT0 | recombinant FGF22 thermal shift, SYPRO orange fluorescence; percent of sucrose octasulfate shift, DMSO zero | calls only at 9.99 µM | hit rate 1.5% among 340,000;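 active means melting point raised past a set limit in the mean and every replicate; inconclusive means no clear call; three in four hits are not shown here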
Target sequence (Q9HCT0 whole entry, looked up): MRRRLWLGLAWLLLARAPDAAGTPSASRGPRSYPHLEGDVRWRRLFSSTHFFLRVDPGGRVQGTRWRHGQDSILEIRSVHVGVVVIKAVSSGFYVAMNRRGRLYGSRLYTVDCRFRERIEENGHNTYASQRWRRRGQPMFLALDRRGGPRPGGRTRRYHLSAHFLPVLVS
T cruzi inh = blocks replication of Trypanosoma cruzi | T. cruzi beta-gal in NIH3T3, luminescence, 90 h | inhibition, % (test concentration not listed) | hit rate 1.4% among 300,000;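 active means mean inhibition across valid replicates above about 55%, limit read from the data; inconclusive means mean below that limit but half or more replicates reach it; inactive means mean below it, under half of replicates reach it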;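 further: signal also drops with host cell toxicity which is not excluded here; 0% = plate median of DMSO wells and 100% = zero luminescence signal; higher percent means less beta-gal luminescence so fewer parasites; stock transfer was 50 nL into about 50 µL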
AF4-AF9 inh = blocks AF4 peptide binding to human AF9; P42568; AlphaScreen, biotin-AF4 peptide binding to FLAG-AF9; inhibition, % at 10 µM; hit rate 0.47% among 350,000; AID 651704;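 active means every replicate reaching a set inhibition limit, whatever the replicate mean, cut at about 25% in these data; inconclusive means mean inhibition reaches that limit but some replicates miss it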;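 further: 0% = plate neutral control median and 100% = total signal loss; the record names both 10 and 1 µM as test concentration; the first replicate is given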
Target sequence (P42568 whole entry, looked up): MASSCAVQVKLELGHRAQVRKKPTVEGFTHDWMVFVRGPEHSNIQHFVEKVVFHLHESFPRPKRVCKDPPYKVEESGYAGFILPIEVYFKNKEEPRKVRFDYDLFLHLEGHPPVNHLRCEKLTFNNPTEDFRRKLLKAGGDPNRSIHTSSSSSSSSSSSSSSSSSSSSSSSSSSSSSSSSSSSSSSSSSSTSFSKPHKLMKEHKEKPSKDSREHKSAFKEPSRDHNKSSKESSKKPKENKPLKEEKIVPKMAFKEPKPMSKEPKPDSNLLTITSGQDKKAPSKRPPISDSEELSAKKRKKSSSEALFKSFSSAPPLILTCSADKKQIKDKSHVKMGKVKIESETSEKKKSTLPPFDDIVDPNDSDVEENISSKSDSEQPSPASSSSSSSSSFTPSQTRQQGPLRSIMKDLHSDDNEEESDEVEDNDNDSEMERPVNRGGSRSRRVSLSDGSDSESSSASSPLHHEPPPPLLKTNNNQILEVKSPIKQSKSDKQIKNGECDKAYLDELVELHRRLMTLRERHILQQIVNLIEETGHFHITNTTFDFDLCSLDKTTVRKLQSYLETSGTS
Ecoli rRNA inh = inhibits bacterial ribosomal RNA function over humanized ribosomes. E. coli WT GFP vs humanized-ribosome RFP mutants, fluorescence, 24 h; stronger effect = lower value; DMSO median 0, no signal -100. GFP signal change (wild-type ribosome), % (concentration not given with the values). hit rate 1.6% among 350,000. AID 720706;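 active means significant combined selectivity score with lowered wild-type GFP, culture density cut under 30%, mutant RFP and density less affected; inactive means any of these conditions unmet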; further: one replicate is shown; some compounds called inactive have numbers as strong as hits
Ecoli rRNA inh OD600 = recorded beside Ecoli rRNA inh, whose call it bears; OD600 change, %; measured here: OD600 growth;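 optical density of the mix in the first replicate; 0 = DMSO median and -100 = no signal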
Ecoli rRNA inh RFP = second read-out of Ecoli rRNA inh, no call of its own (marks repeat the call); RFP signal change, %; measured here: RFP humanized mutant strains;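 first replicate; 0 = DMSO median and -100 = no signal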
* hit, by the source's call; i = inactive; ? = inconclusive; . = not tested or not shown. This is a subset; rates above refer to the full screens.

SMILES | E coli growth | Beta apoptosis | Bfl-1 A1 inh | UCH37 inh | FGF22 binding | T cruzi inh | AF4-AF9 inh | Ecoli rRNA inh | Ecoli rRNA inh OD600 | Ecoli rRNA inh RFP
COc1ccc(CNC(=O)COC(=O)c2cccc(S(=O)(=O)N3CCOCC3)c2)cc1 | 0.69 | -1 | -0.2 | 4.3 | i | . | 0.8 | 3 | 8 | -1.5
CCNc1ncnc2c1cnn2C1CCCCO1 (centres undefined) | 0.69 | . | . | -2.2 | i | . | -29 | 7 | 16 | -2.7
COc1ccccc1N1C(=O)[C@@H]2[C@H](C1=O)[C@H](C(=O)c1ccc(OC(C)=O)cc1)N1N=CC=C[C@@H]21 | 0.72 | 4 | 0.1 | 4.2 | . | -5 | -0.6 | -17 | -8 | -0.4
CCC(C)(C)NC(=O)C(c1cccn1C)N(C(=O)Cn1nnc2ccccc21)c1ccc(OC)cc1 (centres undefined) | 0.7 | 2 | 0.2 | 2.2 | . | 0 | . | . | . | .
CCCN1Cc2cccc(C(=O)N3CCN(c4ccc(F)cc4)CC3)c2C1=O | 0.67 | -4 | 2.0 | 0.0 | . | 0 | . | . | . | .
COc1ccc(CNC(=O)c2noc(C)c2[N+](=O)[O-])cc1 | 0.7 | -4 | -1.0 | 3.7 | i | -9 | -12 | 7 | 15 | -0.4
CC1CCCC(NC(=O)COC(=O)c2ccccc2Sc2ccccc2C#N)C1C (centres undefined) | 0.61 | 2 | -0.6 | 1.9 | i | -12 | 0.6 | 9 | 6 | -3.4
CCCCNC(=O)c1ccc(NS(=O)(=O)c2ccc3[nH]c(=O)[nH]c3c2)cc1 | 0.7 | -7 | 0.2 | -3.0 | i | -2 | -10 | 0 | 5 | -1.4
COc1cc(CN2CCN(S(=O)(=O)c3ccc(NC(C)=O)cc3)CC2)cc(OC)c1O | 0.64 | -3 | 0.9 | 1.8 | . | 3 | . | 14 | 6 | 0.2
Cc1ncoc1C(=O)N1CCCC(N2CCN(c3cccc(C(F)(F)F)c3)CC2)C1 (centres undefined) | 0.69 | 0 | -0.1 | -2.5 | i | 5 | -2.4 | 2 | 4 | 1.3
O=C(NCCCn1ccnc1)c1cc(C2CC2)on1 | 0.73 | -3 | -1.5 | 3.2 | i | -15 | 2.4 | 10 | 9 | 1.9
COc1ccc(NC(=O)O/N=C/c2ccc(N(C)C)cc2)cc1 | . | 1 | -0.8 | . | i | -16 | 3.2 | -13 | -4 | 1.0

Gathered by group: those above containing fluorine (two)
SMILES | E coli growth | Beta apoptosis | Bfl-1 A1 inh | UCH37 inh | FGF22 binding | T cruzi inh | AF4-AF9 inh | Ecoli rRNA inh | Ecoli rRNA inh OD600 | Ecoli rRNA inh RFP
CCCN1Cc2cccc(C(=O)N3CCN(c4ccc(F)cc4)CC3)c2C1=O | 0.67 | -4 | 2.0 | 0.0 | . | 0 | . | . | . | .
Cc1ncoc1C(=O)N1CCCC(N2CCN(c3cccc(C(F)(F)F)c3)CC2)C1 (centres undefined) | 0.69 | 0 | -0.1 | -2.5 | i | 5 | -2.4 | 2 | 4 | 1.3

Other results:
SMILES | E coli growth | Beta apoptosis | Bfl-1 A1 inh | UCH37 inh | FGF22 binding | T cruzi inh | AF4-AF9 inh | Ecoli rRNA inh | Ecoli rRNA inh OD600 | Ecoli rRNA inh RFP
CCCCCC(C)NC(=O)CN1C(=O)NC(C)(c2ccc3ccccc3c2)C1=O (centres undefined) | 0.71 | 5 | -0.1 | -0.8 | i | 3 | -7.9 | 3 | -6 | 9.3
COC(=O)[C@H](C)NC(=O)NCCC1=CCCCC1 | 0.68 | -9 | -0.4 | 8.0 | i | 0 | -3.8 | 6 | 2 | 1.4
CCCC(=O)Oc1cccc(C2NC(=O)c3ccccc3O2)c1 (centres undefined) | 0.65 | -9 | 0.7 | 1.2 | i | -14 | 0.7 | 4 | -1 | 1.9
O=C(OC(C(=O)NC1CCCC1)c1ccncc1)C1=Cc2ccccc2OC1 (centres undefined) | 0.71 | -5 | -0.1 | -13 | . | 0 | . | . | . | .
O=C(O)c1cccc(NC(=S)NC(NC(=O)c2ccccc2[N+](=O)[O-])C(Cl)(Cl)Cl)c1 (centres undefined) | 0.64 | -5 | 0.4 | -3.5 | i | -11 | 0.0 | . | . | .
Cc1cc(C)cc(OCC(=O)OCC(=O)Nc2ccc(Cl)cn2)c1 | 0.74 | . | -0.1 | 3.4 | . | -4 | . | . | . | .
CN(Cc1ccccc1)C(=O)c1cn(C)c2ccc(S(=O)(=O)N3CCCC3)cc2c1=O | 0.68 | 0 | 0.0 | 6.9 | i | 3 | 0.6 | 0 | 11 | 0.9
C[N+](C)(C)CCCC(=O)c1ccc2c(c1)OCO2 | 0.74 | 3 | -1.2 | 0.0 | . | -17 | -0.5 | . | . | .
CSc1nc(C)c(Cl)c(C)c1C#N | 0.74 | 10 | 0.8 | -0.9 | . | 1 | . | . | . | .
COc1ccc(-c2n[nH]c(=S)n2Cc2ccccc2)cc1OC | 0.64 | 3 | -0.1 | -1.2 | i | -4 | -5.9 | -14 | -29 | 0.8
CCCOc1cccc(C(=O)N(Cc2ccccc2)C2CCS(=O)(=O)C2)c1 (centres undefined) | 0.66 | -2 | 0.4 | 4.6 | i | -9 | -0.7 | -3 | -10 | -1.7
CSc1ccc(CCNS(=O)(=O)c2ccc3c(c2)C(C)(C)C(=O)N3C)cc1 | 0.72 | -1 | -0.5 | 2.9 | i | -5 | -6.9 | -2 | -21 | -1.3
COc1cc(OC)c(NC(=O)CCNC(=O)Cn2ccc3ccccc3c2=O)cc1Cl | 0.69 | -3 | 0.9 | 4.0 | . | -5 | . | . | . | .
CC(C)CCNC(=O)CCn1nc(-c2ccccc2)ccc1=O | 0.7 | -1 | 0.6 | -0.2 | i | 7 | -1.5 | 5 | 1 | -3.1
CCOc1ccc(NC(=O)CN(C)C(=O)CCNC(=O)c2ccccc2Cl)cc1OCC | 0.68 | -6 | -0.8 | 4.9 | . | -6 | 0.7 | 9 | 7 | 0.1
COc1ccccc1N1CCN(Cc2nc3ccsc3c(=O)[nH]2)CC1 | 0.77 | -2 | 1.0 | 6.3 | . | -12 | . | . | . | .
COc1cccc(-n2c(SCC(=O)Nc3cc(C)on3)nc3ccccc3c2=O)c1 | 0.68 | 1 | -0.5 | 3.9 | . | 6 | . | . | . | .
CCN(CC)S(=O)(=O)c1ccc(C)c(NC(=O)COc2ccc3c(C)cc(=O)oc3c2)c1 | 0.7 | 3 | -0.8 | -6.1 | . | -20 | . | . | . | .
CCn1c(C)c(C(C)=O)c(SC)nc1=S | 0.76 | -8 | 0.0 | 5.4 | . | -16 | . | . | . | .
C=CC[C@@H](CC(=O)N[C@@H](CO)Cc1ccccc1)C(=O)N[C@@H](COC(=O)[C@H](CC=C)CC(=O)OC(C)(C)C)Cc1c[nH]c2ccccc12 | . | -6 | 0.7 | -0.2 | i | . | 2.8 | 10 | 7 | -0.7
O=C(NCC(c1cccnc1)N1CCOCC1)c1cccs1 (centres undefined) | 0.66 | . | 0.8 | 1.3 | . | 6 | . | . | . | .
Cc1ccc(S(=O)(=O)NC(=O)N2CCCN(Cc3ccc(F)cc3)CC2)cc1 | 0.66 | -1 | -1.0 | 4.7 | i | 4 | 0.7 | 12 | 7 | 0.0
CCN(Cc1ccccc1)Cc1ccc(OCc2ccccc2)c(OC)c1 | 0.67 | -1 | -1.4 | 6.2 | i | 32 | 1.1 | -15 | -15 | 0.8
CC(NC(=O)NC12CC3CC(CC(C3)C1)C2)c1ccc2c(c1)OCO2 (centres undefined) | 0.72 | 8 | -0.1 | 1.2 | i | 13 | -0.3 | 19 | 14 | -0.8
COc1cc(C(F)(F)F)nc2c(Br)c(C(C)(C)C)nn12 | 0.71 | 12 | 1.1 | -21 | . | 9 | -2.2 | 4 | -1 | 54
CN1C/C(=C/c2cccnc2)C(=O)/C(=C/c2cccnc2)C1 | 0.63 | 0 | -0.2 | 6.6 | i | . | -6.8 | 10 | 14 | 9.0
O=C(CN1CCc2ccccc2C1)Nc1ccccc1Cl | 0.67 | 5 | 1.6 | 1.9 | i | 11 | 1.2 | -15 | -4 | 1.1
Cc1cccc(NS(=O)(=O)c2cc(C(=O)N3CCCC3)ccc2Cl)c1 | 0.69 | 7 | 0.4 | 0.6 | i | 13 | 2.4 | 9 | 24 | 0.4
CCOC(=O)c1c(-c2ccccc2)csc1N1C(=O)Nc2ccccc2N1O | 0.7 | 1 | 0.2 | 0.5 | i | -7 | 2.9 | -42 | -64 | -5.8
CCc1ccc(NC(=O)CSc2nc(=O)n(CCCN3CCOCC3)c3c2CCCC3)cc1 | 0.68 | 6 | 0.5 | 0.9 | i | -4 | -28 | -2 | 0 | 1.3
CC(C)(C)n1cnc2cc(NCc3ccc(Br)cc3)ccc21 | 0.62 | -1 | 1.1 | -0.3 | i | 18 | ? | -57 | -83 | -16
O=S(Cc1ccc(Cl)cc1)c1ccccc1 (centres undefined) | 0.67 | . | . | 0.7 | . | . | 1.4 | 6 | 11 | 3.0
CC(=O)N1CCOc2ccc(S(=O)(=O)Nc3cccc(C)c3)cc21 | 0.69 | -1 | -0.9 | 3.8 | i | -7 | 1.6 | 4 | 2 | -0.3
Cc1ccc(NC(=O)C2CCCN2C(=O)Oc2ccccc2)cc1 (centres undefined) | 0.67 | 0 | -0.2 | 0.2 | . | -1 | . | . | . | .
COc1cccc(NC(=O)C(C)C)c1 | 0.68 | -6 | -0.2 | 1.4 | i | 3 | . | 19 | 13 | 1.7
COc1cccc(N2CCN(c3ccc([N+](=O)[O-])cn3)CC2)c1 | 0.69 | 9 | 0.5 | 1.7 | i | -25 | -2.9 | 6 | 5 | -1.1
O=C(Nc1ccnn1C1CCN(C(=O)c2ccc(C(F)(F)F)cc2)CC1)C1CC1 | 0.68 | -3 | 0.6 | 2.0 | i | -11 | 2.0 | 5 | 2 | 3.6
CCOC(=O)C(C)N(c1ccccc1Cl)S(C)(=O)=O (centres undefined) | 0.65 | -10 | 1.3 | 2.1 | i | . | 2.0 | 15 | 13 | -3.7
COc1ccc(C(=O)/C=C/c2cc(OC)c(O)c(OC)c2)c(F)c1 | 0.66 | -18 | -0.1 | 1.7 | . | -8 | . | . | . | .
O=C(COC(=O)/C=C/c1cccc(C(F)(F)F)c1)NC(=O)NCc1ccccc1 | 0.68 | . | . | 0.2 | i | . | -1.2 | 5 | 9 | 0.0
COc1ccccc1NC(=O)NNC(=O)c1ccc2c(c1)NC(=O)C(C)(C)O2 | 0.69 | 1 | -0.4 | 2.2 | i | -5 | 0.4 | -15 | -12 | 0.8
CCN(CCO)c1ncnc2onc(-c3ccc(F)cc3)c12 | 0.68 | -4 | 0.3 | -1.7 | i | -2 | -2.0 | -1 | -1 | -1.3
N#CC(C#N)=Cc1cccn1-c1ccc(C(=O)O)cc1 | . | 0 | -0.6 | . | i | 12 | -2.2 | 6 | -4 | 2.0
Cc1ccc(Cl)cc1N1CCN(S(=O)(=O)c2c(C)[nH]c(=O)[nH]c2=O)CC1 | 0.69 | -5 | 0.4 | 6.8 | . | -5 | . | . | . | .
